Beta apoptosis = beta cell apoptosis inhibition. INS-1E cytokine-induced death, ATP luminescence, 48 h; percent of positive-control rescue, neutral wells zero. protection from apoptosis, % (test concentration not listed). actives 0.8% (n = 300,000);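 active = all replicates at 75% or more, or half of them and the mean; inconclusive = half reach 75% but not the mean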;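 note: 0% = cytokine-treated negative control wells and 100% = positive control rescue; higher means more ATP so stronger rescue from cytokine killing; wells of about 40 µL received 100 nL stock; the first replicate is given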
B2AR ag = activates human beta-2 adrenergic receptor causing internalization. actives 0.43% (n = 340,000). response, % (no concentration beside the values). P07550. Am2.2-beta2AR cells, FAP receptor internalization, flow cytometry; reference of the scale not given here. AID 504454;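 active = response above a set limit, near 3 SD of response in nonfluorescent compounds, cut at about 42% in these data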;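 note: stock transfer was 100 nL into about 11 µL; a reference agonist was the positive control; negative values mostly stem from fluorescent compounds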
T cruzi inh = blocks replication of Trypanosoma cruzi | T. cruzi beta-gal in NIH3T3, luminescence, 90 h | inhibition, % (no concentration beside the values) | actives 1.4% (n = 300,000);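 active = mean inhibition across valid replicates above about 55%, limit read from the data; inconclusive = mean below that limit but half or more replicates reach it; inactive = mean below it, under half of replicates reach it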;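 note: signal also drops with host cell toxicity which is not excluded here; 0% = plate median of DMSO wells and 100% = zero luminescence signal; higher percent means less beta-gal luminescence so fewer parasites; stock transfer was 50 nL into about 50 µL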
Bfl-1 A1 inh = inhibitors of the anti-apoptotic protein A1, read as caspase activation; MEF A1-2A-BIM cells, Caspase-Glo 3/7 luminescence, 3 h; percent of clofoctol response, vehicle zero; caspase activation, % (test concentration not listed); actives 0.066% (n = 330,000); AID 2462;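 active = over half of replicate activation scores above 10%, or exactly half above 10 with the replicate mean above 10; inconclusive = replicate mean below 10 yet half the replicates above 10; inactive = over half of replicates below 10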;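 note: wells of about 30 µL received 50 nL stock; many hits fall short of the cut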
LANA-H2B inh = blocks KSHV LANA binding to histone H2A/H2B | Q9QR71 | cell-free LANA-H2A/H2B peptide, fluorescence polarization | inhibition, % (no concentration beside the values) | actives 0.6% (n = 320,000) | AID 2629; in the data active = inhibition mostly above about 10%, no sharp cut-off; inactive = mostly below about 6.7%;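 note: stock transfer was 7.5 nL into about 10 µL; 0% = median of vehicle wells and 100% = median of positive control wells; one replicate is shown; the record names a cut of 25% in any replicate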
Target sequence (Q9QR71 whole entry, looked up): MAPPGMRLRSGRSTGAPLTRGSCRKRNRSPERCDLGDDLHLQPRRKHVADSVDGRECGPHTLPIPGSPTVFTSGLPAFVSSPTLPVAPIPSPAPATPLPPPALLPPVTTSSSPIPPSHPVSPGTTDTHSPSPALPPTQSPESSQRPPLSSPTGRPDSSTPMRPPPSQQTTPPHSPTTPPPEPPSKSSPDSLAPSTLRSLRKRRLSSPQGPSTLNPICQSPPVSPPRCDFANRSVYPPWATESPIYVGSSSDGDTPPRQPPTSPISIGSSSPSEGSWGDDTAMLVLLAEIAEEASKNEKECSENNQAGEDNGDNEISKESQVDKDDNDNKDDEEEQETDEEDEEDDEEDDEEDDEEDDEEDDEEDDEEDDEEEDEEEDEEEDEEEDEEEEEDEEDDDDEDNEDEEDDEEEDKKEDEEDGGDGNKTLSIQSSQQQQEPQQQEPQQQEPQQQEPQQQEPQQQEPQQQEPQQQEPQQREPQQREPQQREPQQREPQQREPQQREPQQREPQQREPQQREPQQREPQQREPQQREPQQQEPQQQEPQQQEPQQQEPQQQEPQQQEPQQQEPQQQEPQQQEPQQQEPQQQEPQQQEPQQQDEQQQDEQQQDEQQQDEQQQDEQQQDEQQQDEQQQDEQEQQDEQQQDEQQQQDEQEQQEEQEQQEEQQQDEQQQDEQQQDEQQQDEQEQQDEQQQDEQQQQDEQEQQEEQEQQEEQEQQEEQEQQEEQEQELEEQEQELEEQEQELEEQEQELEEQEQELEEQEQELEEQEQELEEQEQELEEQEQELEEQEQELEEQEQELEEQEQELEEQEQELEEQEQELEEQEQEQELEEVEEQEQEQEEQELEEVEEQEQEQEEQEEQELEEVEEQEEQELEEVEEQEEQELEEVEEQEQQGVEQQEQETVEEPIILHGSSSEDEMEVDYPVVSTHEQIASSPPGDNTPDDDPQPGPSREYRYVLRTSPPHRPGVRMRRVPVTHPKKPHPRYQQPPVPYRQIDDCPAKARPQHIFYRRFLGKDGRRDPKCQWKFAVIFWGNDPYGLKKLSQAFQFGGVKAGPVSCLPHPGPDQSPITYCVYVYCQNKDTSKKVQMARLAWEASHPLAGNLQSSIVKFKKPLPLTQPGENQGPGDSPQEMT
Ecoli rRNA inh = inhibitors of bacterial rRNA selective over humanized ribosomes; E. coli WT GFP vs humanized-ribosome RFP mutants, fluorescence, 24 h; active compounds read low; DMSO median 0, no signal -100; GFP signal change (wild-type ribosome), % (test concentration not listed); actives 1.6% (n = 350,000);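 active = significant combined selectivity score with lowered wild-type GFP, culture density cut under 30%, mutant RFP and density less affected; inactive = any of these conditions unmet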; note: one replicate is shown; some compounds called inactive have numbers as strong as hits
ALR inh = blocks human ALR sulfhydryl oxidase activity | P55789 | purified ALR, DTT oxidation, H2O2 HRP-luminol luminescence | inhibition, % (concentration not given with the values) | actives 3.8% (n = 290,000) | AID 485317;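 active = mean and each replicate at 75% or more; inconclusive = only one of the two met; inactive = neither met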;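 note: stock transfer was 7.5 nL into about 7.5 µL; 0% = neutral wells and 100% = wells with inactivated enzyme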
Calb FLC = C. albicans growth modulation with fluconazole. actives 0.57% (n = 300,000). C. albicans CaCi-2 (fluconazole-resistant clinical isolate) + fluconazole, Alamar Blue growth, 48 h. growth inhibition, % (no concentration beside the values);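 active = most replicates above 75%; inconclusive = exactly half above 75%; inactive = most below 75%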;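 note: all wells also contain fluconazole at 8 µg/ml as a sub-toxic cotreatment; 0% = median of DMSO wells and 100% = median of geldanamycin control wells; wells of about 8 µL received 7.5 nL stock; the first replicate is given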
Ecoli rRNA inh OD600 = recorded beside Ecoli rRNA inh, whose call it bears; OD600 change, %; measured here: OD600 growth;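 optical density of the mix in the first replicate; 0 = DMSO median and -100 = no signal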
Ecoli rRNA inh RFP = recorded beside Ecoli rRNA inh, whose call it bears; RFP signal change, %; measured here: RFP humanized mutant strains;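 first replicate; 0 = DMSO median and -100 = no signal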
* marks the source's active call; other numbers are inactive results; ? = inconclusive; / = no result given. The list is partial; rates above refer to the full screens.

SMILES	Beta apoptosis	B2AR ag	T cruzi inh	Bfl-1 A1 inh	LANA-H2B inh	Ecoli rRNA inh	Ecoli rRNA inh OD600	Ecoli rRNA inh RFP	ALR inh	Calb FLC
CCCCn1c(N)c(N(CCOC)C(=O)C2CCN(S(=O)(=O)c3ccc(C)cc3)CC2)c(=O)[nH]c1=O	-7	-14	-20	0.6	4.6	7	10	-1.9	-2	5
CCOC(=O)c1c(-c2ccccc2)csc1NC(=O)c1cc2ccccc2oc1=O	1	-8	-6	-0.9	-5.7	5	10	-1.4	1	-3
O=C1c2ccccc2C(O)(Cc2ccccc2)N1c1ccc2c(c1)OCO2 (centres undefined)	-8	-5	8	0.4	-0.6	/	/	/	-40	0
COC(=O)c1c(C(=O)OC)c2ccccn2c1C(=O)c1ccc([N+](=O)[O-])cc1	-3	3	41	0.1	2.6	-10	-3	-2.8	-43	9
CCOC(=O)N1CCN(C(=O)CSc2nnc(Cn3c(=O)sc4ccccc43)n2C)CC1	-17	-8	/	0.1	2.3	4	12	-0.2	-14	/
CC(C(=O)NC1CCCCCC1)n1cc([N+](=O)[O-])cn1 (centres undefined)	-3	5	-7	-0.2	-5.8	5	6	0.4	/	-1
CCc1cc2c(=O)c(-c3cnn(-c4ccccc4)c3)c(C)oc2c(CN2CCCCC2)c1O	13	-10	23	0.0	0.7	/	/	/	50	4
O=C(O)c1ccc(NC(=O)c2ccccc2Br)c(NC(=O)c2ccccc2Br)c1	/	0	-6	1.2	2.9	-2	0	1.5	-6	19
CCN(CC)C(=O)c1c(Cl)nc(C)c([N+](=O)[O-])c1C	-1	14	-25	1.5	/	/	/	/	/	?
O=C(CSc1nc2ccccc2n1CCc1ccccc1)NC1CC1	-13	-18	0	-1.3	-3.4	-22	-23	-4.6	-11	21
Cc1nonc1NC(=O)CSc1nnc(-c2ccoc2C)n1-c1cccc(Cl)c1	2	-15	3	0.0	-1.0	/	/	/	7	-17
CCN(CC)c1ccc(S(=O)(=O)N2CCOCC2)cc1NC(=O)CSC(=S)N1CCCC1	1	-11	14	0.2	-0.8	-10	-2	13	-4	-9
O=C(NCc1cccc(C(F)(F)F)c1)C1CC(c2ccc(C(F)(F)F)cc2)=NO1 (centres undefined)	-3	-3	-10	-0.7	3.3	6	-9	4.2	-7	12
COc1cc(/C=C/C(=O)O)cc2c1OCCO2	-8	-10	-1	-0.7	-0.4	1	3	4.0	-3	5
Cc1cc(C)n(-c2nc3ccccc3n3nnnc23)n1	-4	5	-3	-0.1	-4.2	/	/	/	-12	-6
O=S(=O)(Cc1nnnn1-c1ccccc1)c1ccc(F)cc1	-4	-1	0	-0.4	3.3	4	-5	0.9	-14	5
Cc1ccc(/C=N/NC(=O)c2csc(C)c2)o1	5	-5	28	-0.4	-3.7	/	/	/	1	1
Cc1cccc(/C(N)=N/OC(=O)Cc2cccc3ccccc23)c1	8	-10	7	1.1	-7.5	2	0	3.0	-10	-7
COc1ccc(Cc2nc(C(=O)NCc3ccccc3OC)cs2)cc1	-9	7	3	-0.1	-2.1	/	/	/	-20	-2
O=C(N/N=C/c1c[nH]c2ccc(Br)cc12)c1ccn(Cc2ccc(Cl)cc2Cl)n1	2	4	10	-0.4	-5.2	/	/	/	1	-6
COc1ccc(C(=O)N2CCN(c3cccc(Cl)c3)CC2)c(OC)c1	0	-7	-10	0.3	0.2	/	/	/	-18	-9
CC(C)CSc1ncc(-c2cccc(C(F)(F)F)c2)cn1	0	1	-1	0.3	-3.5	/	/	/	7	-16
C/C(=N\NC(=O)c1cc(-c2cccc([N+](=O)[O-])c2)n[nH]1)c1ccc(F)cc1	-3	-3	5	0.3	1.0	-3	8	-0.7	3	7
O=C(O)C1CSC(CCc2ccccc2)N1 (centres undefined)	3	-8	-4	-0.1	-3.4	/	/	/	-2	-3
COc1ccc(CN2CCC(N(CCc3ccccc3)Cc3ccccc3)CC2)c(OC)c1	20	20	60*	0.1	2.9	-52	-75	-24	/	25
COc1ccc(CNC(=O)CN2C(=O)COc3ccc(S(=O)(=O)N4CCCC4)cc32)cc1	-8	-1	2	1.6	-1.8	1	7	-0.5	1	-18
Clc1ccc(-c2nnc(-c3ccco3)nc2N2CCCCC2)cc1	/	33	-7	-0.1	3.5	1	12	-0.3	55	17
O=C(NCCc1ccc(C(F)(F)F)cc1)C1CCC(=O)N(C2CC2)C1 (centres undefined)	-9	-4	2	1.1	4.4	1	6	1.1	2	-2
Cc1cc(Nc2ccccc2)nn1C(=O)c1ccc(Br)cc1	-1	50*	-5	0.1	1.9	/	/	/	-9	-2
OC(c1ccc(F)cc1)(C1CCCCC1)C(CN1CCOCC1)c1ccccc1 (centres undefined)	-1	-3	-6	0.0	1.6	-13	-12	-2.3	-15	-4
Cc1cc(C)c(C(=O)CSc2n[nH]c(=O)n2C2CC2)cc1C	7	9	2	-0.2	6.3	/	/	/	5	6
CCC(C(=O)Nc1ccc(N2CCOCC2)c(S(=O)(=O)Nc2ccccc2OC)c1)c1ccccc1 (centres undefined)	-1	6	/	1.2	-5.8	6	9	-1.5	3	/
O=C(NCc1ccccn1)C(=O)NCc1ccccn1	-2	-1	-11	0.2	1.8	21	17	2.8	-21	-15
Cc1nn(-c2ccc(F)cc2)c2nc(N)c(C#N)c(-c3cccs3)c12	25	21	39	0.7	-3.9	/	/	/	-15	4
COC(=O)c1ccc(-n2nnnc2SCC(=O)Nc2ccccc2OC)cc1	5	-4	-5	0.4	4.6	/	/	/	-5	7
CCc1ccccc1NC(=O)N1CCc2ccccc21	-1	6	-9	-0.3	-2.5	8	0	-2.7	/	-4
O=C(N/N=C/c1cccc(Oc2ccccc2)c1)c1cccc(Br)c1	5	-8	-47	-2.9	0.9	-22	-24	-0.1	-6	9
COCCn1nnnc1C(c1ccc(OC)c(OC)c1)N1CCN(c2nc3ccccc3s2)CC1 (centres undefined)	-10	-13	6	-0.1	3.6	/	/	/	-29	2
COc1ccc(-c2noc(CSc3ccccc3)n2)cc1OC	-7	-1	-11	0.1	-2.8	/	/	/	-6	-3
CCN1CCN(C(=O)CNC(=O)c2nn(-c3ccc(OC)cc3)c(=O)c3ccccc23)CC1	-1	-6	-6	-0.7	6.0	3	15	-2.2	2	2
CN(CC1CCCN(CCc2ccc(Cl)cc2)C1)C(=O)c1ccoc1 (centres undefined)	2	-7	50	?	-4.2	4	5	-1.9	0	5
Cc1c(/C=N/NC(=O)CNc2ccccc2)c2ccccn2c1C(=O)c1ccccc1	-18	-2	29	0.3	/	/	/	/	/	3
O=C(O)CCc1ccc(S(=O)(=O)Nc2ccc(OCc3ccccc3)cc2)cc1	1	-4	-2	-0.2	-2.0	-5	-19	0.5	-2	-2
O=C(CSC1CN(C(c2ccccc2)c2ccccc2)C1)N/N=C/c1ccc(Cl)cc1Cl	-8	7	-4	-0.1	-2.0	17	10	5.7	1	13
CCC(C)NCC(=O)Nc1ccc(-c2nc3cc(NC(=O)CNC(C)CC)ccc3o2)cc1 (centres undefined)	-1	15	/	-0.1	-8.3	/	/	/	-12	/
COc1ccc(C(=O)C2CCCN(Cc3ccc4nonc4c3)C2)c(C)c1 (centres undefined)	3	0	20	0.3	-2.9	-33*	-18*	-4.3*	/	3
O=C1CC(SC(=Nc2ccccc2)Nc2ccccc2)C(=O)N1c1cccc2ccccc12 (centres undefined)	-4	-5	0	-0.1	-3.3	/	/	/	-3	-3
CCn1c(/C=C/c2c[nH]c3ccccc23)nc2ccccc2c1=O	0	-7	2	-2.0	-2.6	13	-1	6.1	9	3
N#CCCN(NC1=NS(=O)(=O)c2ccccc21)C(=O)c1ccccc1Br	/	-8	-12	-0.2	-0.8	/	/	/	2	-8
CC1CC(C)CN(Cc2nc3c(c(=O)n(C)c(=O)n3C)n2CCN2CCOCC2)C1 (centres undefined)	6	-6	1	0.1	-5.0	/	/	/	/	-12
CCOC(=O)CNC(=O)CSc1nnc(-c2ccco2)n1Cc1ccco1	4	0	0	0.3	-0.6	/	/	/	1	2
Cc1ccc(S(=O)(=O)NCC2(c3ccccc3)CCOCC2)cc1	-8	1	-4	0.3	-3.5	4	-1	-0.7	/	1
CCCCSC1=C(C#N)C(c2ccccc2C)C(C(=O)OCC)C(=O)N1 (centres undefined)	/	16	-8	0.1	-0.8	-16	-13	2.0	12	23
Cc1cccn2c(=O)nc(SCC(=O)NC3CCCC3)nc12	-4	-4	2	0.2	-8.4	-2	-1	-3.8	4	-3
Cc1cc(C)c2c(c1)c(C)cc1nnc(SCC(=O)NCc3ccco3)n12	-7	-8	7	0.6	-1.7	/	/	/	39	-15
NC(=O)c1c(NC(=O)c2cccs2)sc2c1CCCCCC2	4	-5	37	0.3	6.4	/	/	/	-9	44
Cc1cc(C(=O)CSc2nnc(-c3ccc4c(c3)OCO4)o2)c(C)n1-c1ccc(F)cc1	-2	-2	5	-1.6	-12	-6	-8	-1.2	8	10
Cc1ccc(C(C(=O)NC2CCCCC2)N2CCOCC2)cc1 (centres undefined)	-4	11	-27	0.5	-2.5	/	/	/	-9	-12
Cc1ccccc1C(=O)NCC(c1ccco1)N1CCc2ccccc21 (centres undefined)	3	-2	12	0.5	-0.1	-2	-4	0.1	27	-1
O=C1CC(C(=O)NCCc2ccccc2)SC(=Nc2ccccc2)N1 (centres undefined)	0	4	7	0.5	-1.9	4	3	7.6	0	8

(listing goes on)
SMILES	Beta apoptosis	B2AR ag	T cruzi inh	Bfl-1 A1 inh	LANA-H2B inh	Ecoli rRNA inh	Ecoli rRNA inh OD600	Ecoli rRNA inh RFP	ALR inh	Calb FLC
COC(=O)CNC(=O)C1Cc2ccccc2CN1S(=O)(=O)c1ccc(F)cc1 (centres undefined)	-2	9	-8	-0.9	3.7	0	1	-1.5	-2	1
COc1ccccc1Nc1nn2c(=O)c3ccc(C(=O)N4CCCC(C)C4)cc3nc2s1 (centres undefined)	11	15	39	1.5	11	-6	-4	0.9	1	6
CCC(CO)Nc1ncnc2c1cnn2-c1ccc(OC)cc1 (centres undefined)	/	3	-2	-1.7	4.7	0	3	-1.2	-9	-4
Cc1ccc([C@@H]2CC=C(C(=O)O)[C@H](c3cccc(Cl)c3)N2S(=O)(=O)c2ccccc2C)cc1	-9	1	/	-0.2	-0.2	-34	-67	-8.4	/	/
COc1ccc(NC(=O)/C(C#N)=C/c2ccc3c(c2)n(C)c(=O)n3C)cc1	-7	0	-11	-0.3	-0.7	/	/	/	/	-1
Cn1c(CNc2cccc(Cl)c2)nnc1SCC#N	-2	-1	-1	0.8	-0.8	6	14	2.7	3	11
CC(=O)[C@@]1(O)CCC2C3CC[C@H]4C[C@@H](O)CC[C@]4(C)C3CC[C@@]21C (some centres undefined)	4	-1	/	0.0	-1.3	2	12	-1.8	1	/
O=C(N=C1SC2CS(=O)(=O)CC2N1c1ccccc1)C1CC1 (centres undefined)	0	8	-12	-1.5	-1.3	11	10	4.7	/	-1
CN(CC(=O)Nc1ccc(C(N)=O)cc1)CC(=O)Nc1ccccc1Br	-6	-4	-15	0.5	-0.5	-7	1	-2.6	-7	4

Assay outcomes (PubChem BioAssay)
